# UCH37 DUB inh – human UCH37 deubiquitinating enzyme inhibition; inhibition, % (concentration not given with the values); Q9Y5K5; hit rate 0.33% among 330,000; purified proteasome/UCH37, Ub-AMC cleavage fluorescence; AID 588478;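 active = mean of two replicates above 20%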;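 note: 0% = compound-free wells with enzyme and 100% = wells lacking proteasome; stock transfer was 100 nL into about 20 µL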
# Target sequence (Q9Y5K5 whole entry, looked up): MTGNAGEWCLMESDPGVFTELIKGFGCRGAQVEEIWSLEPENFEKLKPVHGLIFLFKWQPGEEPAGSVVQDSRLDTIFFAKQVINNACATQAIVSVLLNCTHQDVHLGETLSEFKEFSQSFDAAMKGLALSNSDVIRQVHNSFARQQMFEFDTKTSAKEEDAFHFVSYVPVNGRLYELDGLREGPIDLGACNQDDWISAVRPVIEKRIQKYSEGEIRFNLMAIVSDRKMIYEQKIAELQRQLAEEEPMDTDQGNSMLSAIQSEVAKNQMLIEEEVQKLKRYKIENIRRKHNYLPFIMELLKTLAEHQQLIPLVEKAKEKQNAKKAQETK
#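 System: Proteasome-associated human UCH37 deubiquitinase; Input: 0.15 nM proteasome in added enzyme buffer; Also added: Ub-AMC substrate from 1 µM stock; Incubation: 30 min compound-proteasome preincubation then 25 min substrate reaction, room temperature; Detection: fluorescence, ex 355 nm, em 460 nm; Read-out: % inhibition of Ub-AMC cleavage fluorescence; Benchmarks: no-proteasome and no-compound wells.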
# HNF4A DNA FP – change in binding of human HNF4 alpha to DNA; activity change, % at 10 µM; P41235; AID 1224865; hit rate 0.3% among 360,000; HNF4a-FITC DNA binding, fluorescence polarization, 1 h; in the data active = activity change above about 30%, passing the limit was not always enough;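 note: controls were the assay level and a saturating level of protein; the project sought stronger binding though the title names inhibitors; some compounds called inactive have numbers as strong as hits; positive values seem to mean higher polarization but the record does not say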
# Beta2AR agonist – human beta-2 adrenergic receptor agonism by FAP | Am2.2-beta2AR cells, FAP receptor internalization, flow cytometry; reference of the scale not given here | response, % (test concentration not listed) | hit rate 0.43% among 340,000;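 active = response above a set limit, near 3 SD of response in nonfluorescent compounds, cut at about 42% in these data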;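 note: stock transfer was 100 nL into about 11 µL; a reference agonist was the positive control; negative values mostly stem from fluorescent compounds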
# Target sequence (P07550 whole entry, looked up): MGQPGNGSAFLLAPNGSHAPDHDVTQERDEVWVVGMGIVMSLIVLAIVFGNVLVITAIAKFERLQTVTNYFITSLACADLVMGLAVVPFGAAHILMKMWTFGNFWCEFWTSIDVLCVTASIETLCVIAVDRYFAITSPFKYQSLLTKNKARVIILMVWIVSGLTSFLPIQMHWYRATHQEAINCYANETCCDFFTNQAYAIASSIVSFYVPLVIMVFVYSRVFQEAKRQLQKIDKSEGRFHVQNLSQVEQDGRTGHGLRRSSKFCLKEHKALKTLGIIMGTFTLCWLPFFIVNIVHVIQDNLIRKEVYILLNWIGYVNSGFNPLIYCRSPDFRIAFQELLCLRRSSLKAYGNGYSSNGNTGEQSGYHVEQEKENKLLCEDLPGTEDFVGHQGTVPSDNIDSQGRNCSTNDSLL
# ALR inh – inhibitors of human sulfhydryl oxidase ALR; inhibition, % (test concentration not listed); P55789; hit rate 3.8% among 290,000; purified ALR, DTT oxidation, H2O2 HRP-luminol luminescence;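 active = mean and each replicate at 75% or more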;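 note: stock transfer was 7.5 nL into about 7.5 µL; 0% = neutral wells and 100% = wells with inactivated enzyme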
# FGF22 binding – shifts melting point of recombinant human FGF22; Q9HCT0; recombinant FGF22 thermal shift, SYPRO orange fluorescence; percent of sucrose octasulfate shift, DMSO zero; calls only at 9.99 µM; hit rate 1.5% among 340,000; AID 651658;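 active = melting point raised past a set limit in the mean and every replicate; three in four hits are not shown here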
# Target sequence (Q9HCT0 whole entry, looked up): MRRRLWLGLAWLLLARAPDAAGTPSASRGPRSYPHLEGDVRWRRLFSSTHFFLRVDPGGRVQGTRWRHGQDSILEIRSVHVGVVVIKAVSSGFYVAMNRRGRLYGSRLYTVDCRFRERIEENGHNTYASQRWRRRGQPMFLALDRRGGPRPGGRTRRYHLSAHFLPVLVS
# Ecoli growth – inhibitors of Escherichia coli growth; hit rate 0.21% among 330,000; OD600, 23 h; active compounds read low; AID 1053175; OD600 absorbance (concentration not given with the values);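 active = OD600 absorbance below the run mean of sample wells minus 3.6 SD, in any replicate, cut at about 0.56 in these data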;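 note: stock transfer was 300 nL into about 60 µL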
# LANA-H2B inh – blocks KSHV LANA binding to histone H2A/H2B; inhibition, % (no concentration beside the values); AID 2629; cell-free LANA-H2A/H2B peptide, fluorescence polarization; Q9QR71; hit rate 0.6% among 320,000; in the data active = inhibition mostly above about 10%, no sharp cut-off; inactive = mostly below about 6.7%;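 note: stock transfer was 7.5 nL into about 10 µL; 0% = median of vehicle wells and 100% = median of positive control wells; one replicate is shown; the record names a cut of 25% in any replicate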
# Numbers without * were called inactive; i = inactive; · = not tested or not shown; & = joins results of further samples.
SMILES,UCH37 DUB inh,HNF4A DNA FP,Beta2AR agonist,ALR inh,FGF22 binding,Ecoli growth,LANA-H2B inh
CCOc1cc(N2CCOCC2)c(OCC)cc1NC(=O)COC(=O)[C@@H]1CCCN1S(=O)(=O)c1ccccc1F,3.7,-3.6,6,·,i,0.7,-5.5
CNc1ccccc1C(=O)OCC(=O)c1ccc(F)cc1,2.1,0.8,20,·,·,0.72,2.2
COc1ccc(OCC(=O)Nc2ccc(N3CCN(C(=O)c4ccccc4)CC3)c(Cl)c2)cc1,1.0,-2.8,3,0,i,0.7,-8.9
c1cc(CNc2ccc3c(c2)OCO3)ccn1,-9.1,-12,1,87*,·,0.72,-5.9
COc1cccc(C(=O)NNC(=O)CCC(=O)O)c1,3.3,-3.1,1,·,i,0.71,-1.2
Cc1cc(C)c(CSc2nnnn2-c2ccc(C(=O)O)cc2)c(C)c1,2.4,-0.3,4,9,i,0.7,2.6
CCc1ccc(OCc2n[nH]c(=S)n2C(C)CCCC(C)C)cc1 (centres undefined),6.2,-2.6,5,1,i,0.72,-2.7
COc1cccc(NC(=O)Cn2c3ccccc3c3nc4n(c(=O)c32)CCS4)c1,-15,-0.5,-3,86*,i,0.73,-3.5
Cc1cc(=O)n2c(c1C#N)SC1CCCCC12O (centres undefined),2.0,2.0,-6,24,·,0.69,-2.8
O=c1cc(CN2CCN(Cc3ccccc3)CC2)c2ccc(O)cc2o1,i,3.3,-4,0,i,0.61,-3.6
Cc1nn(Cc2ccccc2)c(C)c1NC(=O)CSc1n[nH]c(C)c1[N+](=O)[O-],5.8,-1.0,-13,-6,·,0.68,-0.6
COCc1nnc(NC(=O)CSCc2ccccc2)s1,2.6,0.3,0,-5,·,0.7,-2.8

# Molecules listed so far with a halogen, in the order listed:
SMILES,UCH37 DUB inh,HNF4A DNA FP,Beta2AR agonist,ALR inh,FGF22 binding,Ecoli growth,LANA-H2B inh
CCOc1cc(N2CCOCC2)c(OCC)cc1NC(=O)COC(=O)[C@@H]1CCCN1S(=O)(=O)c1ccccc1F,3.7,-3.6,6,·,i,0.7,-5.5
CNc1ccccc1C(=O)OCC(=O)c1ccc(F)cc1,2.1,0.8,20,·,·,0.72,2.2
COc1ccc(OCC(=O)Nc2ccc(N3CCN(C(=O)c4ccccc4)CC3)c(Cl)c2)cc1,1.0,-2.8,3,0,i,0.7,-8.9

# Part of the list above, reformatted.
UCH37 DUB inh | HNF4A DNA FP | Beta2AR agonist | ALR inh | FGF22 binding | Ecoli growth | LANA-H2B inh | Molecule
2.0 | 2.0 | -6 | 24 | · | 0.69 | -2.8 | Cc1cc(=O)n2c(c1C#N)SC1CCCCC12O (centres undefined)
i | 3.3 | -4 | 0 | i | 0.61 | -3.6 | O=c1cc(CN2CCN(Cc3ccccc3)CC2)c2ccc(O)cc2o1

# Further records follow:
SMILES,UCH37 DUB inh,HNF4A DNA FP,Beta2AR agonist,ALR inh,FGF22 binding,Ecoli growth,LANA-H2B inh
CC(=O)c1ccc(O)c(CO)c1,-0.5,0.1,4,2,·,0.67,-4.1
Cc1ccsc1CCNC(=O)C1CCC(=O)N(CCc2cccc(F)c2)C1 (centres undefined),3.5,4.1,6,-14,i,0.71,1.5
O=C(O)c1ccccc1-c1ccc(/C=C2\SC(=O)N(c3ccccc3)C2=O)o1,5.7,7.6,6,33,i,0.68,7.3
c1ccc2c(Cn3ccnc3)c[nH]c2c1,4.4,1.2,-1,-27,·,0.68,0.7
CCOC(=O)c1nc(C)n(-c2ccc(Cl)cc2Cl)n1,2.1,-0.8,16,-5,·,0.68,-1.2
CCOC(=O)C1(Cc2ccc(OC)cc2)CCN(C(=O)C2CC(=O)N(C3CC3)C2)CC1 (centres undefined),2.1,-0.7,-1,2,i,0.72,-4.6
COc1ccc(-c2sc(Nc3cccc4ccccc34)n[n+]2C)c(C)c1C,-3.5,4.0,-1,·,i,0.68,·
O=C(CNC(=O)c1cc(Cl)nc2ccccc12)Nc1ccccc1Br,0.4,0.5,-6,2,i,0.7,0.3
COC(=O)c1ccc([C@H]2CC(=O)O2)cc1,2.3,-4.4,10,5,i,·,3.5
Cc1nn2cc(-c3ccc(Cl)cc3)nc2s1,5.2,-0.9,0,-9,·,0.71,0.4
O=C1/C(=C/Nc2ccc3c(c2)OCO3)CCc2ccccc21,-6.7,49*,10,35,·,0.73,4.1
ClCCN1C2=NCCCN2c2ccccc21,-0.6,3.1,4,3,i,0.63,-1.7
Cc1c(-c2nc(-c3ccc(C(F)(F)F)cc3)no2)n(C)oc1=O,·,-0.6,-3,3,i,·,15
O=C(NCc1ccccc1)C12CC3CC(CC(Cl)(C3)C1)C2,1.6,0.2,-4,-5,i,0.63,-6.5
CCOc1cc(/C=N/NC(=O)CNc2cccc(C)c2)ccc1OC(=O)c1ccccc1,·,1.7,5,-2,·,·,-2.3
Cc1cc(NC(=O)CSCC(=O)N(c2cccc(Cl)c2)C(C(=O)NC2CCCCC2)c2ccc(O)c(O)c2)no1 (centres undefined),2.4,-4.3,3,99*,·,0.73,-1.5
Cc1ccc2nsnc2c1N(S(C)(=O)=O)S(C)(=O)=O,0.9,-1.3,-3,·,·,0.71,·
COc1cccc(C2=CC(c3ccc(OC)c(OC)c3)NC(=S)N2)c1 (centres undefined),-49,·,8,-4,i,0.62,2.7
COC(=O)c1c(-c2ccccc2)csc1NC(=O)CSc1ncnc2sc(C)c(C)c12,1.9,4.2,-8,-13,·,0.77,4.1
COc1ccc(-c2nc(N)nc(C)c2Oc2ccccc2Br)c(O)c1,8.3,-10,5,-6,·,0.7,2.1
CC(C)CN(CC(C)C)C(=O)CN1C(=O)NC2(CCc3ccccc3C2)C1=O (centres undefined),1.6,-1.5,-4,·,i,0.67,-0.4
CN(Cc1ccccc1)C(=O)Cn1c(=O)oc2cc(S(=O)(=O)N3CCCC3)ccc21,3.4,-1.0,11,4,i,0.71,1.6
CC(C)Cc1ccc(CN2CCCC(NC(=O)c3cnc4ccccn4c3=O)C2)cc1 (centres undefined),-330,-0.6,-6,·,i,0.68,2.6
N#Cc1c(N)nc2c(c1-c1ccccc1)CCC2,-89,-0.9,-2,·,i,0.72,-0.4

# For reference, 2 of the compounds above:
SMILES,UCH37 DUB inh,HNF4A DNA FP,Beta2AR agonist,ALR inh,FGF22 binding,Ecoli growth,LANA-H2B inh
CN(Cc1ccccc1)C(=O)Cn1c(=O)oc2cc(S(=O)(=O)N3CCCC3)ccc21,3.4,-1.0,11,4,i,0.71,1.6
CC(C)Cc1ccc(CN2CCCC(NC(=O)c3cnc4ccccn4c3=O)C2)cc1 (centres undefined),-330,-0.6,-6,·,i,0.68,2.6

# New compounds follow:
SMILES,UCH37 DUB inh,HNF4A DNA FP,Beta2AR agonist,ALR inh,FGF22 binding,Ecoli growth,LANA-H2B inh
COc1cccc(C(=O)NC(=S)Nc2ccccc2N2CCOCC2)c1,-0.4,0.8,8,5,·,0.7,-0.5
N#Cc1ccccc1NC(=O)COc1ccc2c(c1)OCO2,3.6,-0.2,-2,-1,i,0.69,3.7
Cc1cccc(N(CC(=O)N2CCCCCC2)S(C)(=O)=O)c1C,0.5,-2.2,8,5,i,0.64,-0.6
O=C(NC(N1CCOCC1)C(Cl)(Cl)Cl)c1ccc(F)cc1 (centres undefined),-2.9,-4.8,-1,2,·,0.63,2.4
COC(C(=O)Nc1ccccc1C(=O)N1CCOCC1)c1ccccc1 (centres undefined),2.5,-1.4,-6,-3,i,0.69,-2.0
Cc1ccc(CNC(=O)C2CC3Cn4c(nc5ccccc54)C3N2C)o1 (centres undefined),-0.7,-1.2,11,-2,i,0.69,0.4
CC(=O)N1c2ccc(S(=O)(=O)NCCC(=O)Nc3ccc(C)c(Cl)c3)cc2CC1C (centres undefined),4.6,-3.9,1,2,i,0.7,-5.7
COc1ccc(OC)c(C=NNC(=O)c2ccc(NS(=O)(=O)c3cccs3)cc2)c1,-66,5.4,·,2,·,0.72,1.4
Cc1ccccc1OCC(=O)Nc1ccc(S(=O)(=O)Nc2ccccn2)cc1,-4.9,0.7,5,99*,·,0.68,5.2
CCCC(C)C(=O)Nc1ccc(S(=O)(=O)N2CCCC2)cc1 (centres undefined),6.9,-1.0,-11,·,·,0.62,-1.3
O=c1cc(COn2nnc3ccc(C(F)(F)F)cc32)nc2sccn12,1.3,1.2,-2,12,·,0.73,0.2
Cc1ccccc1CSCc1nc(N)nc(Nc2ccccc2C)n1,-0.6,-4.8,-4,-8,i,0.67,-1.6
CN(C)CCNc1ncnc2sc(-c3ccccc3)cc12,-15,1.9,11,9,i,0.65,-0.8
COCCN(CCOC)S(=O)(=O)c1ccc(C(=O)Nc2c(C)n(C)n(-c3ccccc3)c2=O)cc1,3.0,-0.2,-5,-3,i,0.68,-3.5
COc1cccc(OCc2cc(C(=O)NCc3cnc4ccccn34)no2)c1,2.7,2.0,-5,-9,i,0.64,0.2
OCCN1CCN(C(=S)Nc2cccc(C(F)(F)F)c2)CC1,0.0&-1.9,-2.5&0.2,0&12,-17,i,0.65&0.66,-1.6
O=C1c2ccccc2NC(c2ccc(-c3ccc(F)cc3)o2)N1O (centres undefined),-6.4,6.4,-1,48,i,·,-2.1
Cc1cc(NC(=S)N(Cc2cccc(Br)c2)CC2CCC(C(=O)O)CC2)ccc1Cl (centres undefined),0.7,-3.1,7,·,i,0.65,·
CNS(=O)(=O)c1cccc(C(=O)OCC(=O)N2CCCC2)c1,4.2,-0.2,6,-18,i,0.71,0.2
CC(C)(C)n1nc2c(c1NC(=O)c1cc3ccccc3o1)CS(=O)(=O)C2,1.0,0.3,1,20,·,0.7,1.3
Cc1nc2ccc(C(=O)N3CCN(c4ccccc4)CC3)cc2s1,4.2,-0.8,1,·,·,0.7,0.7
Nc1ccc(C(=O)Nc2ccc3nc(-c4cccnc4)[nH]c3c2)cc1,4.0,-1.0,3,16,·,0.64,-5.2
Cc1ccc(S(=O)(=O)Nc2nc(C)c(C(=O)NNS(=O)(=O)c3ccccc3)s2)cc1,5.5,-3.1,5,41,i,0.67,3.8
COc1cc(-c2[nH]ncc2CN2CCCC2c2nonc2C)cc(OC)c1OC (centres undefined),1.2,-0.7,4,-7,i,0.7,2.3
CCCOc1c(Br)cc(C(=O)OCc2cc(=O)n3ccsc3n2)cc1OC,0.3,3.7,-4,·,i,0.67,·
O=C(COC(=O)c1nc(Cl)ccc1Cl)NCc1cccs1,0.9,-4.3,-1,-2,i,0.65,0.8
Cc1ccc(-c2c(C(=O)N3CCOCC3)oc(=O)c3ccccc23)cc1,3.2,-0.1,7,·,i,0.76,0.9
COC(=O)CN1C(=O)CSc2ncccc21,0.8,1.2,-1,-13,·,0.69,-2.2
CCOC(=O)c1ccccc1NC(=O)COC(=O)C(CC(C)C)NC(N)=O (centres undefined),3.3,-1.9,1,·,i,0.71,4.6
O=C1NCCCCC1NS(=O)(=O)c1cccc(C(F)(F)F)c1 (centres undefined),-1.7,1.2,4,·,i,0.64,5.0
COc1ccc(/C=N/Nc2nc(-c3ccc(Cl)cc3)cc(C(F)(F)F)n2)cc1OC,·,-1.9,15,-2,·,·,4.0
Cc1ccc(/C=N/NC(=O)c2c(-c3ccccc3)noc2C)c(O)c1,·,-1.0,2,20,i,·,-0.7
NNCCc1ccccc1,4.9,9.1,10,99*,i,·,-0.9
O=C1SC(SCc2ccccc2)=N/C1=C\c1ccco1,3.0,-4.5,1,-14,·,0.69,-5.0
COc1ccc(/C=C2\N=C(SC)N(C)C2=O)cc1,8.4,-3.0,-2,7,i,0.66,-2.7
COc1ccc(C(=O)CCNc2cccc(Cl)c2)cc1,1.1,-16,6,·,·,0.74,·
CC(c1n[nH]c(=S)n1-c1ccccc1)N1CCCCC1 (centres undefined),0.2,1.5,8,2,i,0.65,-2.8
COc1ccc(C(=O)Nc2c(C)ccc3nsnc23)cc1[N+](=O)[O-],3.0,0.7,-3,-13,·,0.69,-0.1

# A portion of the library. The share of hits here may be higher or lower than overall.
